Screening results deposited in PubChem BioAssay by National Center for Advancing Translational Sciences (NCATS).
2A firefly = Primary qHTS Assay for Foot and Mouth Disease Virus Antivirals against NCGC Sytravon and CBC Compound Libraries: Firefly Luciferase Signal; AID 1745856, 2022; HEK cells with a luciferase reporter of 2A StopGo recoding; Potency, µM (series often up to 57.5 µM), inactives show top-dose signal change, negative = less light; actives 0.23% (n = 120,000); active = well fitted falling curve with a large enough effect; inconclusive = small, poorly fitted or top-dose-only effect; inactive = no such curve, though single readings can be large or run the other way; further: nearly all actives have a fitted effect of over 60% in size; overnight with compound
StopGo RLuc = Primary qHTS Assay for Foot and Mouth Disease Virus Antivirals against NCGC Sytravon and CBC Compound Libraries: Renilla Luciferase Signal. HEK cells with a luciferase reporter of 2A StopGo recoding. Potency, µM (highest dose often 57.5 µM), for the others: at the highest dose signal change, negative = less light. AID 1745857, 2022. actives 0.32% (n = 120,000); active means well fitted falling curve with a large enough effect; inconclusive means small, poorly fitted or top-dose-only effect; inactive means no such curve, though single readings can be large or run the other way; further: nearly all actives have a fitted effect of over 55% in size; overnight with compound
Numbers without * were called inactive; ? = inconclusive; & = joins results of further samples; [ ] = remark or other dose. On the % scale 0 is the no-effect control and ±100 the full control effect; potency means the concentration at half of the fitted maximal effect.

SMILES	2A firefly	StopGo RLuc
Cc1ccc(OC(C)C(=O)N2CCN(CCc3ccncc3)CC2)cc1C (stereo not given)	-2%	-10%
CC1=C(C(=O)OC(C)C)C(c2ccncc2)c2c(nc(SCc3ccccc3)[nH]c2=O)N1 (stereo not given)	-8%	1%
O=C(CSc1nnnn1C1CC1)Nc1ccc(CN2CCCC2)cc1	-7%	-14%
CCOc1ccc(CCNC(=O)Cn2nc(-c3ccc(C)cc3)ccc2=O)cc1OCC	-13%	2%
CC(C)NC(=O)N1CCC(N2CCN(Cc3ccc(F)cc3)C(=O)C2=O)CC1	-23%	13%
CC(C)C(NC(=O)c1ccccc1Cl)C(C)C	-1%	7%
CCCn1c(SCC(O)c2cccc(OC)c2)nc2ccccc21 (stereo not given)	-7%	9%
CC1CCCN(CCNC2CCCC2)C1 (stereo not given)	-5%	3%
Cc1ccccc1-c1nc(CN2CCC(C(=O)NC(C)C)CC2)c(C)o1	-7%	-3%
CCOc1cccc(C2c3c(oc4cc(C)c(C)cc4c3=O)C(=O)N2c2nc(C)c(C)s2)c1 (stereo not given)	-15%	?
CCCc1cc(=O)oc2cc(OS(=O)(=O)c3cccc(C#N)c3)ccc12	5%	4%
COc1cc(C(CC(=O)Nc2cccc(C(C)=O)c2)N2Cc3ccccc3C2=O)cc(OC)c1OC (stereo not given)	6%	68%[activator]
Clc1cccc(-n2c(SCc3nnnn3-c3ccccc3)nnc2N2CCCC2)c1	2%	23%
CCCOc1ccc(CNC(=O)CS(=O)(=O)Cc2nc(-c3ccccc3C)oc2C)cc1	?	?
CN1CCN(CN2C(=O)C(O)(CC(=O)c3ccc(Br)s3)c3ccccc32)CC1 (stereo not given)	11%	0%
N#C/C(=C\C=C\c1ccco1)C(=O)NC1CCCCC1	11%	6%
CC(=O)c1ccc(NC(=O)C(C)Sc2ccccc2C(=O)O)cc1 (stereo not given)	20%	11%
O=C1CCC(c2ccccc2)=NN1c1ccc(Br)cc1	9%	-7%
Cc1noc(-c2ccc(OCc3ccccc3F)cc2O)c1-c1ccccc1	31%[activator]	14%
COc1cccc(C(=O)N2CCN(CCc3ccncc3)CC2)c1	4%	-13%
CCCC(=O)N1N=C(c2cccc(NS(C)(=O)=O)c2)CC1c1cccc(F)c1 (stereo not given)	0%	9%
Fc1cccc(Cl)c1/C=N/N=C1c2ccccc2-c2ccccc21	-11%	-5%
NC(=S)N1CCCN1c1ccccc1	-2%	-10%
CC(=O)N1CCc2c(sc3c2c(=O)n(Cc2ccccc2)c(=O)n3Cc2cccc(Cl)c2)C1	-14%	-9%
CCOc1ccc(NS(=O)(=O)c2ccc(-c3cc(C)no3)s2)cc1	-5%&-13%	41%&14%[activator]
O=C(Cc1ccc2ccccc2c1)Nc1cc(Cl)ccc1C(=O)O	23%	15%
O=C(c1ccc(-n2cccc2)cc1)N1CCN(S(=O)(=O)c2ccc(C(F)(F)F)cc2)CC1	-15%	-13%
Cc1ccc(-c2ccc(OC(=O)c3ccccc3I)c(C)c2)cc1	119%[activator]	23%
O=C(c1nn(-c2ccccc2)c(=O)c2ccccc12)N1CCC1	23%	10%
CCNC1CCCCC1	6%	3%
COc1ccc(NC(=O)CSCc2cnn(-c3ccccc3)c2-n2cccc2)cc1	25%	2%
Cc1ccc(N2CC(NC(=O)C3CC3)CC2=O)cc1C (stereo not given)	-17%	-7%
O=c1c2oc3ccccc3c2n(Cc2ccccc2Cl)c(=O)n1Cc1ccc2c(c1)OCO2	-9%	-8%
NC(=O)C(NC(=O)c1cccc(Oc2cccc(C(F)(F)F)c2)c1)C(N)=O	-7%	-2%[1.06 µM]
O=C(C1CN(C(=O)c2ccccc2F)c2ccccc2O1)N1CCOCC1 (stereo not given)	19%	12%
CCCn1cc(C(=O)CSc2nnc(C)s2)c2ccccc21	-8%	-5%
Cc1cccc(N2CCN(C(=O)Cn3nc(C)c4sc5ccccc5c4c3=O)CC2)c1C	15%	11%
O=C(NCC(c1ccc2c(c1)OCO2)N1CCN(c2ccccc2)CC1)c1ccc(F)c(F)c1 (stereo not given)	-4%	20%
COc1ccc(NC(=O)C2CCN(c3cnccn3)CC2)cc1Cl	2%	-10%
Cc1nccn1CCc1nc2cc(NC(=O)C(C)C)ccc2n1C	-9%	-13%
CC(C)c1nc(N2CCCC2)c(C#N)c2c1CCCC2	-2%	-5%
NC(=O)NC(=O)CCN1CCOC(c2ccc(F)cc2)C1 (stereo not given)	0%	-5%
O=C(Cn1cc(SCc2ccc(C(F)(F)F)cc2)c2ccccc21)N1CCCCCC1	31%[activator]	?
COc1cccc(CN(Cc2ccco2)c2cnc(S(C)(=O)=O)nc2C(=O)Nc2cccc(Cl)c2C)c1	-3%	-7%
Cc1sc2ncn(CC(=O)N3CCN(c4ccc(F)cc4)CC3)c(=O)c2c1S(=O)(=O)N1CCC(C)CC1	-14%	-13%

Sorted by molecular weight (low to high): 7 of the compounds above
SMILES	2A firefly	StopGo RLuc
NC(=O)NC(=O)CCN1CCOC(c2ccc(F)cc2)C1 (stereo not given)	0%	-5%
Cc1nccn1CCc1nc2cc(NC(=O)C(C)C)ccc2n1C	-9%	-13%
CCCn1cc(C(=O)CSc2nnc(C)s2)c2ccccc21	-8%	-5%
O=C(C1CN(C(=O)c2ccccc2F)c2ccccc2O1)N1CCOCC1 (stereo not given)	19%	12%
O=C(Cn1cc(SCc2ccc(C(F)(F)F)cc2)c2ccccc21)N1CCCCCC1	31%[activator]	?
O=c1c2oc3ccccc3c2n(Cc2ccccc2Cl)c(=O)n1Cc1ccc2c(c1)OCO2	-9%	-8%
O=C(NCC(c1ccc2c(c1)OCO2)N1CCN(c2ccccc2)CC1)c1ccc(F)c(F)c1 (stereo not given)	-4%	20%

More structures follow:
SMILES	2A firefly	StopGo RLuc
FC(F)(F)c1ccc2nnc(-c3cc(Br)ccc3OCc3ccccc3)n2c1	12%	7%
CC(C)(C)n1cnc2cc(NCc3ccccc3Cl)ccc21	289%[activator]	0%
CCOc1ccccc1NC(=O)CCS(=O)(=O)c1cccc2nsnc12	3%	12%
N#Cc1cnc2ccccc2c1N1CCCCCC1	8%	-3%
CCNC(=S)NNC(=O)c1ccccc1	13%	11%
Cc1cc2oc(=O)cc(CN3CCC(C)CC3)c2cc1O	76%[activator]	20%
CCc1ccccc1NC(=O)C1(C)Cc2ccccc2C(=O)O1 (stereo not given)	-11%	-11%
COc1ccc(-c2nnc(SCc3cccc(Cl)c3)o2)cc1	80%[activator]	7%
N#CC1(NC(=O)COc2cccc(C(F)(F)F)c2)CCCCC1	9%	42%[activator]
Cc1cc(SCC(=O)NC(=O)NCc2ccccc2)nc2ccccc12	-5%	-12%
O=C(Nc1ccc(O)c(-c2nc3ccccc3o2)c1)c1ccc(Br)cc1	-3%	-5%
NNc1ccc(NS(=O)(=O)c2ccc(Cl)cc2)cc1[N+](=O)[O-]	13%	263%[activator]
COC(=O)c1sccc1S(=O)(=O)N(CC(=O)Nc1ccc(C)cc1)c1ccccc1	-16%	70%[activator]
COC(=O)CSc1nc2c(c(=O)n(C)c(=O)n2C)n1CCCc1ccccc1	-2%	-4%
Cc1cccc(C2CCCN2C(=O)Nc2ccc(Br)c(C)c2)c1 (stereo not given)	-5%	13%
O=C1CC(c2ccc(F)cc2)c2cc(Br)c3ccccc3c2N1 (stereo not given)	22%	-2%
COc1cccc(CNCCSc2nnnn2-c2ccccc2)c1OC	?	?
Cc1ccc(N2C(=O)N(Cc3ccc4c(c3)OCO4)c3ccccc3S2(=O)=O)cc1	25%	37%
COc1cc2c(cc1OC)C(COc1ccc(F)cc1)N(C(=O)c1cccc(F)c1)CC2 (stereo not given)	-7%	29%
O=S1(=O)c2ccc(Br)cc2OC[C@@H](Cc2ccccc2)N1Cc1cn(Cc2ccccc2)nn1	33%[activator]	54%[activator]
CNCc1ccc(-c2ccc(Br)cc2)o1	29%	9%
CCCCc1ccc(NC(=O)CSc2nc3ccccc3nc2N2CCOCC2)cc1	-18%	-9%
COc1ccccc1N1CCN(C(=O)Cn2cnc3sc(C)c(S(=O)(=O)N4CCC(C)CC4)c3c2=O)CC1	-8%	-9%
Cn1cc(C(=O)N2CCN(C(=O)c3cccs3)CC2)c2ccccc21	-11%	-7%
O=C(CN1C(=O)COc2ccc(S(=O)(=O)NC3CCCC3)cc21)NCc1ccc(Cl)cc1	-12%	105%[activator]
O=C(COc1ccccc1)NCc1ccc2c(c1)CCN2C(=O)c1ccccc1	-23%	-14%
COc1ccc(-c2nnc(SCC(=O)Nc3ccc4cn[nH]c4c3)n2-c2ccc(Cl)cc2)cc1	22%	15%
COc1ccc(Nc2cc(C(=O)N3CCOCC3)c3ccccc3n2)cc1	76%[activator]	128%[activator]
COc1cc(/C=N/O)ccc1OCc1c(Cl)cccc1Cl	0%	14%
O=C(O)COc1ccc(-c2ccccc2)cc1Cl	11%	-4%
CCOC(=O)c1cnc2c(C)cc(Cl)cc2c1NCCc1ccc(OC)c(OC)c1	-7%	-7%
CCC(C)(C)C(=O)Nc1nc2c(s1)C(=O)CC(C)(C)C2	206%[activator]	17%
O=C(NCCc1ccccc1)OCc1cn(Cc2ccccc2C(F)(F)F)nn1	5%	21%
Cc1ccc(CN(C)C(=O)NCc2ccc(S(=O)(=O)N3CCCCC3)cc2)cc1	-21%	-14%
Cc1cc(C)c(S(=O)(=O)NCCS(=O)(=O)N2CCN(c3ccccc3)CC2)c(C)c1	?	70%[activator]
Cc1ccsc1CN(CC1CCCO1)C(=O)COc1ccccc1 (stereo not given)	4%	50%[activator]
Cc1cc(C)cc(C(=O)NCC(=O)N(C)Cc2c(C)nn(-c3ccccc3)c2C)c1	-4%	-14%
COc1cc(OC)c(NC(=O)c2cnn(-c3ccccc3)c2-n2cccc2)cc1Cl	28%	25%
CC(Oc1ccc(F)cc1)C(=O)N1CCC(c2nc3ccccc3o2)CC1 (stereo not given)	?	?
COc1ccc(CC(=O)NC2CC(=O)N(c3cccc(F)c3)C2)cc1 (stereo not given)	-4%	-8%
Cc1cccc(C2CCCN2C(=O)Nc2ccc(C)c(C)c2)c1 (stereo not given)	70%[activator]	18%
CCc1ccc(-c2cc3c(=O)[nH]nc(SCC(=O)NC4CCCC4)n3n2)cc1	26%	-1%
Cc1ccc(NC(=O)CSc2nc(=O)n(CCCN(C)C)c3c2CCC3)cc1F	6%	-5%
Cc1ccnc2nc(C(=O)OCC(=O)Nc3ccc4c(c3)OCCO4)nn12	0%	-3%
O=C1CCSc2ccc(C(=O)NOC3CCCCO3)cc2N1 (stereo not given)	0%	34%[activator]

Profiles, quoted from the list:
Cc1ccnc2nc(C(=O)OCC(=O)Nc3ccc4c(c3)OCCO4)nn12 across the screens: 2A firefly: 0%; StopGo RLuc: -3%
Cc1cccc(C2CCCN2C(=O)Nc2ccc(C)c(C)c2)c1 (stereo not given) across the screens: 2A firefly: 70%[activator]; StopGo RLuc: 18%

(list continues)
SMILES	2A firefly	StopGo RLuc
COC(=O)c1cc(CN)cs1	-1%	0%
Cc1ccc(S(=O)(=O)c2nc(-c3ccco3)oc2SCC(C)C)cc1	-13%	246%[activator]
COCCn1c(SCc2ccccc2Cl)nc2c1c(=O)[nH]c(=O)n2C	13%	1%
COC(=O)Cc1c(C)c2cc3c(c(C)c2oc1=O)OCN(CCc1ccc(OC)cc1)C3	0%	3%
COc1cc(C(=O)Nc2nnc(S(=O)(=O)N(C)c3ccccc3)s2)cc(OC)c1OC	-16%	18%
CCc1cc2c(SCC(=O)c3ccc(NC(C)=O)cc3)ncnc2s1	20%	-6%
CCc1ccc(C(C(=O)NC2CCCCC2)N(C(=O)c2cnccn2)c2cccs2)cc1 (stereo not given)	3%	37%[activator]
Fc1cc(F)c2ncc3c(-c4ccccc4)nn(-c4cccc(Cl)c4)c3c2c1	-5%	-12%
CCN(CC)CC(C)OC(=O)c1ccccc1F (stereo not given)	-1%	-7%
COc1ccc(-n2nc(C(=O)Nc3ccc(C)cn3)c3c4ccccc4n(C)c3c2=O)cc1Cl	-17%	-8%
CCCCNC(=O)c1sc2ncccc2c1-n1cccc1	76%[activator]	-4%
COc1cc(NC(=O)C(NC(=O)C2CCC(C)CC2)C(C)C)cc(OC)c1OC (stereo not given)	-5%	-10%
CCCNC(=O)CSc1nnc(C(=O)Nc2ccccc2)s1	61%[activator]	-2%
COc1cc(OC)c(NC(=O)CN2CCCN(Cc3ccccc3C)S2(=O)=O)cc1Cl	5%	-6%

Taken from above.
StopGo RLuc result of `CCc1ccc(C(C(=O)NC2CCCCC2)N(C(=O)c2cnccn2)c2cccs2)cc1` (stereo not given) → 37%[activator]
2A firefly result of `Cc1ccc(S(=O)(=O)c2nc(-c3ccco3)oc2SCC(C)C)cc1` → -13%
StopGo RLuc result of `COc1cc(OC)c(NC(=O)CN2CCCN(Cc3ccccc3C)S2(=O)=O)cc1Cl` → -6%
2A firefly result of `Fc1cc(F)c2ncc3c(-c4ccccc4)nn(-c4cccc(Cl)c4)c3c2c1` → -5%
StopGo RLuc result of `COc1ccc(-n2nc(C(=O)Nc3ccc(C)cn3)c3c4ccccc4n(C)c3c2=O)cc1Cl` → -8%
2A firefly result of `COCCn1c(SCc2ccccc2Cl)nc2c1c(=O)[nH]c(=O)n2C` → 13%
2A firefly result of `COC(=O)Cc1c(C)c2cc3c(c(C)c2oc1=O)OCN(CCc1ccc(OC)cc1)C3` → 0%
